# VDR inh: inhibitors of human vitamin D receptor; P11473; Potency, µM, inactives show max response, negative = inhibition, hits mostly inhibitors; AID 504847; actives 0.93% (n = 400,000); VDR-SRC2-3 peptide fluorescence polarization, 2 h; active means well fitted inhibition curve with a large enough effect; inconclusive means small, poorly fitted or top-dose-only effect, or another doubt; inactive means no such curve, though single readings can be large or run the other way; further: series mostly up to about 120 µM
# Target sequence (P11473 whole entry, looked up): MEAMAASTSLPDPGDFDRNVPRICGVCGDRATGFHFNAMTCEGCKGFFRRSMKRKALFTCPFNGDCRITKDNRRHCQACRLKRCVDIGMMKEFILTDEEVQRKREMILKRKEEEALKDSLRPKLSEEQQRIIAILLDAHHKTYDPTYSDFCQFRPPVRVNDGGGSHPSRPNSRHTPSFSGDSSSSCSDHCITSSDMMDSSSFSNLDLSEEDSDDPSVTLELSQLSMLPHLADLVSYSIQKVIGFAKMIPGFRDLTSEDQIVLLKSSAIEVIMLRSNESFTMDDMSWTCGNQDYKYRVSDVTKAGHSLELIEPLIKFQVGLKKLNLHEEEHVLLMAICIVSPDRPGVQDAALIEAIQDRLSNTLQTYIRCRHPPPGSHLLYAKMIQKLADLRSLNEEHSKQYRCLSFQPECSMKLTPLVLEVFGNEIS
#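 Measured by FP: displacement of SRC2-3 coactivator peptide from VDR by library compounds, following a two-hour ambient incubation.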
# * marks the source's active call; other numbers are inactive results; ? = inconclusive; & = joins results of further samples; [ ] = another dose, or the depositor's remark. On the % scale 0 is the no-effect control and ±100 the full control effect; potency means the concentration at half of the fitted maximal effect. This is a subset, so the mix of outcomes need not match the whole.
SMILES,VDR inh
CC1=C2CC3C(CC=C4C[C@@H](O)CC[C@@]43C)[C@@H]2CC[C@]12O[C@@H]1C[C@H](C)CN[C@H]1[C@H]2C (stereo partly drawn),-1%&9%
CC1CC(Cl)CCC1C(=O)OC(C)(C)C (stereo not drawn),16%
CCCCn1c(O)c(C(=O)/C=C/c2c[nH]c3ccccc23)c(=O)[nH]c1=O,64%[activator]
CCOC(=O)C1(CCOc2ccccc2)CCN(Cc2ccccc2OC)CC1,-8%
CCC12CN3CCN(CC(C3)/C1=N\O)C2,13%
Cc1c(C(=O)O)cc(-c2ccccc2)n1Cc1ccccc1,-20%
CCC(CC)N1CCN(C(=O)Cc2ccccc2)CC1,18%
C=CCN1C(=O)C2(C(C(=O)OCC)=C(N)Oc3ccccc32)c2c1c1ccccc1oc2=O (stereo not drawn),-8%
CC(C)C(=O)c1cn(Cc2ccccc2C#N)c2ccccc12,5%
O=c1cccc2n1CC1CC2CN(Cc2ccc3c(c2)OCO3)C1 (stereo not drawn),-1%
N#CCP(=S)(c1ccccc1)c1ccccc1,-12%
CCOc1ccc2oc(C(=O)NN3C(C)CCCC3C)c(C)c2c1 (stereo not drawn),-6%
COc1cccc(N2C(=O)NC(=O)/C(=C/c3ccc4c(c3)Cc3ccccc3-4)C2=O)c1,?
CN1C(=O)C(=Cc2cccnc2)C(=O)N(C)C1=O,?
O=C(c1ccc2c(c1)N(Cc1c(F)cccc1Cl)C(=O)c1ccccc1S2)N1CCC2(CC1)OCCO2,-14%
C[C@@H]1C[C@@H]2[C@H]([C@H]3C=C(COC(=O)c4ccccc4)[C@@H](O)[C@]4(O)[C@@H](O)C(OC(=O)c5ccccc5)=C[C@@]14C3=O)C2(C)C,-5%
O=C(N/N=C/c1c(O)n(Cc2ccccc2)c(=O)[nH]c1=O)c1ccncc1,-5%
CC(=O)c1ccc(OCC(=O)N2CCCC(N(C)Cc3ccccc3)C2)cc1 (stereo not drawn),-14%
CCC(C)n1c(O)c(C(c2ccccn2)c2c(O)n(C(C)CC)c(=S)[nH]c2=O)c(=O)[nH]c1=S (stereo not drawn),-12%
COC12C(COC(N)=O)C3=C(C(=O)C(C)=C(N)C3=O)N1CC1C2N1C (stereo not drawn),-10%
O=C(COc1ccc(Cl)cc1)NCCc1cnc[nH]1,5%
CC(C)C/C(=N/O)c1c[nH]c2ccccc12,-9%
c1ccc(C[n+]2ccccc2)cc1,-17%
C[C@]12CCC3[C@@H](CCC4=CC(=O)CC[C@@]43C=O)C1CCC2=O (stereo partly drawn),-1%
CCCCn1c(NC(=O)c2ccc(Br)o2)c(C(=O)OCC)c2nc3ccccc3nc21,?

# Reprinted from the part before: four compounds, followed by the next part.
SMILES,VDR inh
CC(C)C/C(=N/O)c1c[nH]c2ccccc12,-9%
c1ccc(C[n+]2ccccc2)cc1,-17%
C[C@]12CCC3[C@@H](CCC4=CC(=O)CC[C@@]43C=O)C1CCC2=O (stereo partly drawn),-1%
CCCCn1c(NC(=O)c2ccc(Br)o2)c(C(=O)OCC)c2nc3ccccc3nc21,?
CC(C)(C)C(=O)Cn1c(NCCCl)nc2ccccc21,-3%
Cc1ccc(C(=O)O)cc1N=Nc1c(O)[nH]c(=O)[nH]c1=O,-11%
CN(C)C(Cc1ccccc1)C(=O)c1ccccc1 (stereo not drawn),3%
C[C@]12CCC3C(CC[C@@H]4[C@H]5O[C@H]5CC[C@]34C)C1CC[C@@H]2O (stereo partly drawn),-6%
C#C[C@]1(O)CCC2C3CC=C4C[C@H](O)CC[C@]4(C)C3CC[C@@]21C (stereo partly drawn),-12%
O=C(c1ccc2c3c(cccc13)CC2)C1CCCN(Cc2ncc[nH]2)C1 (stereo not drawn),4%
COc1ccc(CNC(=O)CCC(=O)N2C[C@H]3C[C@H](C2)c2cccc(=O)n2C3)cc1OC,13%
COc1ccccc1-n1c(Cc2ccccc2)nc2ccccc2c1=O,-1%
COc1ccc(N(CC(=O)Nc2cccc(SC)c2)S(C)(=O)=O)cc1Cl,-4%
c1csc(CN2CCC3(CCNCC3)CC2)n1,0%
CCn1c(=O)cc(SCC(=O)N2CCC3(CC2)OCCO3)c2ccccc21,4%
COc1ccc(C2(c3cccc(O)c3OC)CCN(C(C)=O)CC2)cc1O,-17%
Cc1cc2c(cc1C)NP(=S)(c1ccccc1)N2,?
COC1CC(C)C(OC)c2cc(O)cc(c2O)NC(=O)C(C)=CC=CC(C)C(OC(N)=O)C(C)=CC(C)C1OC (stereo not drawn),?
Cn1c2ccccc2c2c(C(=O)N3CCC4(CC3)OCCO4)cn(C3CCCCC3)c(=O)c21,-9%
O=C(O)Cn1cc(C(=O)c2ccccc2F)c2ccccc21,0%
O=C1CSC(c2ccccc2Cl)c2cc(Cl)ccc2N1 (stereo not drawn),?
COc1ccc(C(=O)C2CCCN(Cc3ccccn3)C2)c(OC)c1 (stereo not drawn),-16%
COc1ccc(C2=NCc3nnc(C)n3-c3ccc(Cl)cc32)cc1Cl,9%
COc1ccc(OC)c([C@H](O)[C@H](C)N)c1,6%
O=C(CSC1c2ccccc2-c2ccccc21)N/N=C/c1ccccc1O,7%
CC(C)(C)c1nc(NCc2ccc3c(c2)OCO3)c2nnn(Cc3ccccc3Cl)c2n1,-8%
COc1ccc(OCC(=O)N2CCN(C3CCC(c4ccccc4)CC3)CC2)cc1 (stereo not drawn),-5%
CC(=NCCN1CCOCC1)c1c(O)n(C2CCCCC2)c(=O)[nH]c1=O,12%
NP(=O)(Oc1ccccc1)Oc1ccccc1,-6%

# 6 structures already listed, sorted by length of the SMILES, highest first.
SMILES,VDR inh
CCCCn1c(NC(=O)c2ccc(Br)o2)c(C(=O)OCC)c2nc3ccccc3nc21,?
C[C@]12CCC3[C@@H](CCC4=CC(=O)CC[C@@]43C=O)C1CCC2=O (stereo partly drawn),-1%
COc1ccccc1-n1c(Cc2ccccc2)nc2ccccc2c1=O,-1%
CC(C)C(=O)c1cn(Cc2ccccc2C#N)c2ccccc12,5%
COc1ccc(OC)c([C@H](O)[C@H](C)N)c1,6%
NP(=O)(Oc1ccccc1)Oc1ccccc1,-6%

# In a second layout: results already given
Compound: Cn1c2ccccc2c2c(C(=O)N3CCC4(CC3)OCCO4)cn(C3CCCCC3)c(=O)c21
  VDR inh = -9%
Compound: C#C[C@]1(O)CCC2C3CC=C4C[C@H](O)CC[C@]4(C)C3CC[C@@]21C (stereo partly drawn)
  VDR inh = -12%
Compound: O=C(c1ccc2c3c(cccc13)CC2)C1CCCN(Cc2ncc[nH]2)C1 (stereo not drawn)
  VDR inh = 4%
Compound: CCn1c(=O)cc(SCC(=O)N2CCC3(CC2)OCCO3)c2ccccc21
  VDR inh = 4%

# Remaining list, next part:
SMILES,VDR inh
COC(=O)C1=C(c2ccc(C(C)=O)cc2)C[C@@H]2CC[C@H]1N2C(=O)N1CCOCC1,-8%
C/C=C(\C)C(=O)N[C@@H](c1ccccc1)[C@@H](O)C(=O)O[C@H]1C[C@@]2(O)[C@@H](OC(=O)c3ccccc3)C3[C@](C)(C(=O)[C@H](OC(C)=O)C(=C1C)C2(C)C)[C@@H](O)C[C@H]1OC[C@@]31OC(C)=O (stereo partly drawn),-9%&0%
O=C(Nc1cccc(C(F)(F)F)c1)c1cccn(Cc2ccc3c(c2)OC(F)(F)O3)c1=O,-3%
Cc1ccc(-n2nc(C)c3c2NC(=O)CSC3c2ccc3c(c2)OCO3)cc1 (stereo not drawn),?
CCC1(CCO)C(=O)NC(=S)NC1=O,-1%
CN1C(=O)C(=Cc2ccccc2OCCOc2ccc([N+](=O)[O-])cc2)C(=O)N(C)C1=O,?
CCCCCCn1c(O)c(/C=N/N2CCCCCC2)c(=O)[nH]c1=O,11%
CN(C)c1ccc(NC(=O)CN2C(=O)CN=C(c3ccccc3)c3ccccc32)cc1,6%
O=C1NC(=O)N(c2ccc3c(c2)OCO3)C(=O)/C1=C\c1ccc(N2CCCCC2)o1,-12%
c1cc2c(cc1NC1=NCCO1)CCCC2,-5%
Cc1nc2ccccc2c(=O)n1-c1ccccn1,18%
CNC(=S)S,?
C[C@]12CC[C@@H](O)CC1=CCC1C2CC[C@@]2(C)C1CC[C@@H]2N (stereo partly drawn),0%
O=P(OCC(F)(F)C(F)F)(N1CCOCC1)N1CCOCC1,14%
CCOC(=O)c1c(C)[nH]c(C(=O)C(Cc2ccccc2)N(C)C)c1C (stereo not drawn),-3%
CCC(=NCc1ccco1)c1c(O)n(C2CCCCC2)c(=O)[nH]c1=O,-9%
O=C1CC(c2ccccc2)CN1 (stereo not drawn),2%
CCN(CC)CCNC(=O)c1c(O)c2ccccc2n(Cc2ccccc2)c1=O,4%
Cc1ccc(C2C(S(C)(=O)=O)=C(O)C(=O)N2c2ccccc2)cc1 (stereo not drawn) (tested in a mixture with another compound),-9%
O=[N+]([O-])c1ccccc1-c1cc(-c2ccccc2)cc(-c2ccccc2)[n+]1Cc1ccccc1Cl,-1%
CCC(=NCCCN(C)C)c1c(O)n(-c2ccc(OC)cc2)c(=O)[nH]c1=O,13%
c1ccc(C(CN2CCCCC2)c2ccccc2)cc1,-10%
COc1ccccc1Cn1c(SCC#N)nc2cc(C(=O)N3CCC4(CC3)OCCO4)ccc2c1=O,1%
COc1ccc(CC2(CCc3ccncc3)C(=O)NC(=O)NC2=O)cc1OC,12%
CC(C)c1ccc(OCC(=O)N2CCN(CCc3ccccn3)CC2)cc1,-6%
# Next section
SMILES,VDR inh
COc1ccc(C2SCC(=O)Nc3c2c(C)nn3C2CCOC(C)(C)C2)cc1 (stereo not drawn),-9%
CN(C(=O)Oc1ccc(C(C)(C)C)cc1)c1ccccc1,10%
CC(=O)C(O)C(c1ccccc1)c1c(O)c2ccccc2oc1=O (stereo not drawn),4%
COC(=O)CCC(=O)Nc1sc(Cc2ccccc2)c(C)c1C(N)=O,20µM*
CC1=C(C(=O)O)N2C(=O)C(NC(=O)CCCC(=O)O)C2SC1 (stereo not drawn),-18%
CCc1ccc(N2C(=O)NC(=O)C(Cc3ccc(OC)cc3OC)C2=O)cc1 (stereo not drawn),-15%
OCCOCCO,-4%
O=C1C2CCCC1C(N1CCCC1)CC2 (stereo not drawn),1%
O=C(COC(=O)Cc1ccccc1)Nc1cccnc1Cl,26%
CN(C)P(=O)(N(C)C)N1CC1,14%
CC(=O)c1cc(C#N)c(N2CCN(C)CC2)nc1C,4%
C=CCn1c(O)c(C=NCCN(C)C)c(=O)[nH]c1=O,15%
Cn1c(O)c(C=NCc2ccco2)c(=O)n(C)c1=O,-1%
N=Cc1c(O)n(-c2ccccc2)c(=O)n(-c2ccccc2)c1=O,-13%
O=c1[nH]c(=O)n(Cc2ccc(F)cc2)c(O)c1C=NCCCN1CCOCC1,-6%
CCOC(=O)CC1c2ccccc2-n2nncc2CN1C (stereo not drawn),6%
Cc1cccc(CS(=O)(=O)Cc2ccc(C(=O)N3CCC4(CC3)OCCO4)o2)c1,23%
O=C(Cc1ccccc1)Oc1cccc(N2C(=O)CCC2=O)c1,-1%
O=c1cccc2n1CC1CC2CN2CCCCC12 (stereo not drawn),2%
CCOC(=O)C1=C(N)Oc2cc(C)oc(=O)c2C12C(=O)N1c3c(cc(OC)cc32)C(C)=CC1(C)C (stereo not drawn),1%
O=c1[nH]c(=S)[nH]c(O)c1CN1CCCCC1,-11%
O=C1C=CC[C@@H]2[C@H]3CCCN4CCC[C@@H](CN12)[C@@H]34,-8%
c1ccc2c(N3CCNCC3)nsc2c1,2%
Cc1cc(/C=C2/C(=O)NC(=O)N(c3ccc(Br)cc3)C2=O)c(C)n1C,23%
O=C(COc1ccc(Cl)cc1Cl)N1CCN(C/C=C/c2ccccc2)CC1,5%
# (listing goes on)
SMILES,VDR inh
Cc1ccc(C[n+]2c(-c3ccc(C)cc3)cc(-c3ccc(C)cc3)cc2-c2ccc(C)cc2)cc1,3%
O=C1C=CC(=O)c2c(O)cccc21,40µM*
O=C1CN=C(c2ccc[nH]2)c2cc(Cl)ccc2N1,-13%
Cc1ccc(C(C)C)c(OCC#CCN2CCCC2)c1,0%
CCCCn1c(O)c(C(C)=NCCCn2ccnc2)c(=O)[nH]c1=O,-11%
O=c1[nH]c(=S)n(Cc2ccco2)c(O)c1C=NCc1cccs1,1%
CCOCCCN=Cc1c(O)n(Cc2ccccc2)c(=O)[nH]c1=O,2%
O=C1NC(=O)C(=Cc2cccs2)C(=O)N1,?
Cc1ccc(N=Cc2c(O)n(-c3ccc(C)cc3)c(=O)[nH]c2=O)cc1,7%
CC(C)NP(=O)(NC(C)C)OP(=O)(NC(C)C)NC(C)C,9%&0%
O=C1Nc2ccc(Br)cc2C(c2ccccc2Cl)=NC1O (stereo not drawn),-11%
O=C1NC(=O)C(=CCc2ccccc2)C(=O)N1,?
CN(C(=O)Oc1ccc(C(=O)c2ccc(Cl)cc2)cc1)c1ccccc1,-7%
COC(=O)CSC1=NN1c1cc(C)nc(N)n1,-6%
O=C(c1cc2nc(-c3ccccc3)cc(-c3ccccc3)n2n1)N1CCC2(CC1)OCCO2,?
CN1C(=O)NC(=O)C2(Cc3ccccc3N3CCOCC32)C1=O (stereo not drawn),3%
O=C(CCc1nc(C2=CCN(Cc3cccc(Cl)c3)CC2)no1)Nc1ccccc1F,14%
O=c1[nH]c(=O)n(-c2ccccc2)c(O)c1N=Nc1ccc(Br)cc1,3%
CN1C(=O)NC(=O)/C(=C/c2ccc([N+](=O)[O-])s2)C1=O,45µM*
CC(C)c1cccc(C(C)C)c1OCCn1ccnc1,8%
COC(=O)C1=C(c2cc3ccccc3o2)C[C@@H]2CC[C@H]1N2C(=O)N1CCC(O)CC1,-11%
COC(=O)C1=C(c2ccc(OC(F)(F)F)cc2)C[C@@H]2CC[C@H]1N2C(=O)NC1CC1,4%
O=C(N/N=C/c1c(O)n(CCc2ccc(F)cc2)c(=O)[nH]c1=O)c1ccccc1,-18%
O=C(C(=O)N1CCOCC1)c1cn(Cc2ccc(F)cc2)c2ccccc12,-7%
Cc1c(N=Cc2c(O)n(Cc3ccco3)c(=O)[nH]c2=O)c(=O)n(-c2ccccc2)n1C,-6%

# Compound activity: PubChem BioAssay, National Center for Advancing Translational Sciences (NCATS)
